Bioassay records (PubChem)
CSC inhib: cancer stem cell viability inhibitors, primary screen, luminescence. cancer stem cell-like cells viability. inhibition, % at 7.5 µM. hit rate 1.1% among 300,000;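 active = mean at 75% or more and at least half the replicates too; inconclusive = mean and replicates disagree; tested in HMLE shEcad cells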;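 also: 0% = median of negative and 100% = median of positive control wells; the first replicate is given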
Rce1 inhib: yeast Rce1p protease inhibitors, primary screen, biochemical, fluorescence, cell-free homogeneous; CAAX prenyl protease 2 (Saccharomyces cerevisiae (strain ATCC 204508 / S288c)), Q03530; yeast membranes, quenched prenylated peptide cleavage fluorescence; calls only; hit rate 0.27% among 290,000;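 active = fall in fluorescence gain of 50% or more versus controls, with final raw signal at or below 3038400; inconclusive = same 50% fall but final raw signal above 3038400; inactive = fall in fluorescence gain under 50%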;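 also: plate controls were neutral control wells for no effect and wells lacking membranes for full effect; tested at 10 µM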
MT1-MMP act inh: blockers of MT1-MMP proenzyme processing, primary screen, HT1080 RFP-PRO-GFP cells, GFP/RFP fluorescence | Matrix metalloproteinase-14 (Homo sapiens), P50281 | GFP/RFP ratio fluorescence, overnight; percent of plate control window, DMSO zero | GFP/RFP ratio change, % at 20 µM | hit rate 0.061% among 360,000;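 active = GFP/RFP ratio change of at least 30% with cell ATP level not reduced by more than half and red fluorescence within 50% of control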; also: strong numbers were not always called active
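Assay system – RFP-PRO-GFP reporter HT1080 cells · Compound dosing – single dose of 20 µM compound, 1% DMSO final · Incubation – overnight compound exposure at 37 °C · Measure – GFP/RFP fluorescence ratio · Benchmarks – DMSO wells and RFP-L50D-GFP cells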
Env fusion inh: inhibitors of HIV-1 Env-driven cell-cell fusion, primary screen, HeLa-JRFL effector, CEM21 target cells, luciferase. inhibition, % at 12.3 µM. hit rate 1.1% among 360,000. AID 651610, 2012;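 active = mean replicate inhibition score of at least 50 and every replicate individually at or above 50; inconclusive = only one of the two criteria met; inactive = mean below 50 and not all replicates reaching 50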;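 also: 0% = plate neutral controls and 100% = maraviroc near 300 nM; one replicate is shown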
PABP polyA inh: PABP poly(A) RNA binding inhibitors, primary screen, biochemical, fluorescence polarization, uHTS | inhibition, % at 35 µM | hit rate 1% among 290,000;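 active = 50% or more with normal probe brightness, or confirmed in later tests; inconclusive = above 50% with abnormal brightness, or retests that disagree; inactive = below 50% or failed in later tests; about a fifth of its hits are not listed in these tables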;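 also: calls also rest on retests at 20 µM and on dose response follow-up; controls were probe without protein and protein plus probe with vehicle; some compounds called inactive have numbers as strong as hits; many hits fall short of the cut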
Target sequence (P11940 whole entry, looked up): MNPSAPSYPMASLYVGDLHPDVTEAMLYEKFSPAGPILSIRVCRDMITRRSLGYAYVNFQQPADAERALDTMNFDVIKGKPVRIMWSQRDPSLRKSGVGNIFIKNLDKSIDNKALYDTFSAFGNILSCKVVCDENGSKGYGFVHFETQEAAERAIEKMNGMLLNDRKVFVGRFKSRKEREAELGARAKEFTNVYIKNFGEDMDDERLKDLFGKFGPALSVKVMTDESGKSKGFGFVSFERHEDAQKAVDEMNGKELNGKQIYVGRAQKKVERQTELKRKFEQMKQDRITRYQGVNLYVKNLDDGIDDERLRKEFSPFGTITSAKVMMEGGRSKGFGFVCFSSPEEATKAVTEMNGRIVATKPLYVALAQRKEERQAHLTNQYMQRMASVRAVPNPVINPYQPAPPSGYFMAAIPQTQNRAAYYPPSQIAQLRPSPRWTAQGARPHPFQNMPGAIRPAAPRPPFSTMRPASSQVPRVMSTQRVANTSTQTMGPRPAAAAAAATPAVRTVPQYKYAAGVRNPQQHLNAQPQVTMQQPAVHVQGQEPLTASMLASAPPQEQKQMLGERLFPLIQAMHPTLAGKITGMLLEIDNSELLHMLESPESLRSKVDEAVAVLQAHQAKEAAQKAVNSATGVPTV
UUG fidelity: modulators of yeast start codon fidelity, primary screen, whole organism, S. cerevisiae, single point, plate reader. activity score, % at 18.7 µM. AID 602363, 2012. hit rate 0.13% among 350,000. S. cerevisiae UUG-firefly luciferase reporter, luminescence/redox ratio;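 active = replicate mean at a twofold rise or more, about +100% in these data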;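 also: firefly luciferase made from a UUG start codon reports start codon fidelity; reporter light over untreated wells divided by growth signal over untreated wells; some hits fall short of that in this replicate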
eIF4H FP inh: human eIF4H binding inhibitors, primary screen, translation initiation inhibitor project, biochemical, uHTS, fluorescence polarization; Eukaryotic translation initiation factor 4H (Homo sapiens), Q15056; eIF4H fluorescence polarization binding assay; inhibition, % at 35 µM; hit rate 0.94% among 290,000;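 active = 50% or more with normal probe brightness, or confirmed in later tests; inconclusive = above 50% with abnormal brightness, or retests that disagree; inactive = below 50% or failed in later tests; about a fifth of its hits are not listed in these tables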;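 also: calls also rest on retests at 20 µM and on dose response follow-up; 0% = protein and probe with vehicle and 100% = probe without protein; strong numbers were not always called active; many hits fall short of the cut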
eIF4H FP inh retest: recorded beside eIF4H FP inh, whose call it bears; inhibition, %; compound at 20 µM; confirmation average;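 mean of two retest wells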
PABP polyA inh retest: further read-out of PABP polyA inh, marked with its call; inhibition, %; compound at 20 µM; confirmation repeats;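 mean of two retest wells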
MT1-MMP act inh RFP: also measured in MT1-MMP act inh; calls as there; RFP signal change, %; measured here: RFP expression control read;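 0 = vehicle wells; hits needed this value within 50% of zero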
Active calls of the source: *; i = inactive; ? = inconclusive; nt = no result given. An unsorted share of the library (roughly 2.9% active in at least one column).

SMILES	CSC inhib	Rce1 inhib	MT1-MMP act inh	MT1-MMP act inh RFP	Env fusion inh	PABP polyA inh	UUG fidelity	eIF4H FP inh	others
Cc1cccn2cc(-c3ccc(F)cc3)cc12	-6	i	-3	2	-33	7	-18	14
CCCN(CC(=O)Nc1ccc(Cl)cc1Cl)Cc1cc(=O)n2ccsc2n1	-2	i	-9	-14	10	-12	-5	0
Cc1ccc(CCNC(=O)c2cc(-c3ccncc3)nc3ccccc23)cc1	nt	i	2	-4	7	2	-16	-14
O=C(CN1C(=O)NC2(CCOc3ccccc32)C1=O)Nc1ccc(F)c(F)c1F (configuration not stated)	nt	i	-2	-1	-9	10	nt	-3
C=CCN(CC=C)C(=O)c1ccc(OC2CCN(C(C)=O)CC2)c(OC)c1	1	i	2	3	4	-6	-10	2
COc1ccc2[nH]cc(CCNC(=O)CS(=O)(=O)Cc3ccccc3)c2c1	2	i	1	1	3	7	2	-4
CC(=O)Nc1ccc(S(=O)(=O)NC(C)C(=O)NCCc2ccc(F)cc2)cc1 (configuration not stated)	-37	i	-3	4	12	-12	nt	0
CCC(Sc1nc(N)cc(=O)[nH]1)C(=O)NC(C(=O)OC)c1ccccc1 (configuration not stated)	16	i	nt	nt	nt	3	nt	-12
CCn1nc(NS(=O)(=O)c2ccccc2[N+](=O)[O-])c2cc3cccc(C)c3nc21	2	i	2	1	-7	28	7	2
CSc1nc(O)c(C(c2ccc(OC(C)C)cc2)c2c(O)nc(SC)[nH]c2=O)c(=O)[nH]1	nt	i	-4	-4	-20	nt	nt	nt
Cc1cc(C)cc(N(CC(=O)NC2CC3CCC2C3)S(C)(=O)=O)c1 (configuration not stated)	-28	i	-2	-2	3	20	-19	-6
C/C(=N\NC(=O)CSCc1ccc([N+](=O)[O-])cc1)c1cccc(Br)c1	-4	i	3	-4	27	-2	3	-10
CCCC[N+](CC#CCO)(CC#Cc1ccccc1)CCCC	-5	i	-1	3	-10	-4	nt	5
CC(C)NC(=O)[C@]1(C)CCC[C@@]2(C)C3CC[C@@]4(C)C[C@]3(CCC21)CC4=O (some centres not stated)	17	nt	8	4	-12	nt	-11	nt
Cc1ccccc1OCC(=O)Nc1nnc(C2CCCC2)s1	-4	i	0	1	1	-11	0	0
COc1ccc(OC)c(S(=O)(=O)Nc2cc(Cl)cc(Cl)c2)c1	1	i	2	-2	-70	-2	18	-2
CC(C)N(C(=O)COC(=O)c1ccc(O)cc1)C(C)C	-20	i	2	9	nt	6	-8	8
CC1(C(=O)NCCc2ccccc2)Cc2c(-c3cccc(C(F)(F)F)c3)ccnc2O1 (configuration not stated)	nt	nt	-10	-15	-35	nt	-8	nt
CC(C)c1nnc(NC(=O)CCC(=O)NC2CCCCCCC2)s1	nt	i	8	8	10	-6	7	-4
COCc1nnc(NC(=O)c2cc(Cl)ccc2OC)s1	-12	i	0	-1	5	9	-24	1
O=C(c1ccc2c(=O)n3c(nc2c1)CCCCC3)N1CCc2ccccc21	-19	i	4	7	-1	-2	-19	-9
Cc1cccc(S(=O)(=O)N2CN(Cc3ccco3)c3nc4ccccc4nc32)c1	-2	i	-17	17	nt	20*	-21	54*	eIF4H FP inh retest=69*;PABP polyA inh retest=51*
COc1ccc(CN(C(=O)c2ccco2)C2CC(C)N(C)CC2C)cc1 (configuration not stated)	-7	i	-7	-1	-29	0	-13	-8
C=C(C)CN(CC)c1nc(N)c(C#N)c(CC#N)c1C#N	1	i	1	9	-286	76*	-4	84*
Cn1nc(C(=O)NNC(=O)c2ccc(Cl)c(S(N)(=O)=O)c2)c2ccccc2c1=O	-2	nt	-2	2	-9	nt	10	nt
Fc1cccc(F)c1-n1c(CN2CCCC2)csc1=S	-9	i	1	2	12	4	nt	2
O=C1CN(C(=O)COC(=O)c2ccc[n+]([O-])c2)c2ccccc2N1	nt	i	nt	nt	-12	5	6	-4
O=C(CN1CCN(Cc2cccc(Cl)c2)C1=O)NCC1CCCO1 (configuration not stated)	-13	i	0	2	8	3	-13	-2
COc1ccccc1N1CCN(C(=O)c2ccccc2N(C)S(=O)(=O)c2ccc(C)cc2)CC1	-7	i	5	-3	0	-2	-7	-8
CC(C)NC(=O)C1(C)Cc2c(-c3ccc(C(N)=O)cc3)ccnc2O1 (configuration not stated)	nt	nt	5	0	11	nt	4	nt
COC(=O)c1cc(NCc2ccc3c(c2)OCO3)ccc1N1CCOCC1	-16	i	1	-2	-9	0	-5	7
O=C(Cc1csc(-c2cccc(F)c2)n1)Nc1cccc(S(=O)(=O)NC2=NCCC2)c1	nt	nt	1	-4	27	nt	-5	nt
CCN(Cc1ccccc1)C(c1cc2ccc(C)cc2[nH]c1=O)c1nnnn1CCOC (configuration not stated)	-10	i	3	8	-51	-4	-6	-4
Cc1ccc(OCc2nc(C#N)c(N3CCN(Cc4ccccc4)CC3)o2)cc1	-2	i	-5	-3	-2	-6	-10	-3
CN(C)Cc1csc(NC(=O)Nc2cccc(C(F)(F)F)c2)n1	nt	nt	3	6	-25	nt	-14	nt
CSCCC(NS(=O)(=O)c1ccccc1F)C(=O)NCc1cccs1 (configuration not stated)	-17	nt	-3	4	nt	nt	-11	nt
CCc1cccc(CC)c1NC(=O)C1CC(=O)N(c2ccc3c(c2)OCCO3)C1 (configuration not stated)	-5	i	0	4	-54	19	-4	20
COc1ccc(NC(=O)CSc2ncccn2)cc1S(=O)(=O)N1CCCCC1	-17	nt	8	7	5	nt	-9	nt
CC(C)(C)c1ccc(CCC2OCC(CN3CCOCC3)O2)cc1 (configuration not stated)	16	i	1	-8	21	-10	nt	9
COc1ccc(S(=O)(=O)c2c(O)c3ccc(C(=O)Nc4ccccc4Cl)cc3[nH]c2=O)cc1	2	i	5	7	-7	30	3	2
Cc1ccc([C@@H]2CC=C(C(=O)O)[C@H](c3ccccc3F)N2S(=O)(=O)c2ccccc2C)cc1	nt	nt	2	2	7	nt	12	nt
O=C(Nc1ccc(-c2nc3cccnc3s2)cc1)c1ccco1	1	i	-1	-5	-53	13	-30	-1
CC1CCN(C(=O)Cn2c3ccc(F)cc3c3nc4n(c(=O)c32)CCCS4)CC1	-12	i	-10	-10	nt	nt	-16	nt
CCc1ccc2[nH]c3nc(SCC(=O)NNC(=O)c4ccc(C(C)(C)C)cc4)nnc3c2c1	5	i	7	4	-225	-10	-12	0
Cc1ccc(S(=O)(=O)N2CCN(C(=O)COC(=O)CNC(=O)c3ccccc3F)CC2)c(C)c1	nt	nt	-1	3	-4	nt	-10	nt
Cc1cc(C)n(CC(=O)NNC(=O)C2CC(=O)N(Cc3ccccc3Cl)C2)n1 (configuration not stated)	-9	i	0	-2	-9	2	-7	-10
Cc1ccn2cc(CNC(=O)c3ccc(Br)o3)nc2c1	-14	i	-4	6	-7	0	-12	-5
CC(CN1CCCC1)OC(=O)Cc1ccc(Cl)cc1 (configuration not stated)	-10	i	-1	-4	-8	-6	-17	-9
CCSc1nnc(NC(=O)C2Cc3ccccc3CN2C(=O)c2ccco2)s1 (configuration not stated)	-9	i	-13	7	nt	30	-14	52	eIF4H FP inh retest=28;PABP polyA inh retest=45
CCCNC(=O)Cn1c(=O)n(CC(=O)N2CCCCC2)c(=O)c2sccc21	-17	i	0	1	-5	2	nt	-3
CC(SC1CCCC1)C(=O)Nc1ccnn1C(C)C (configuration not stated)	-8	i	4	5	2	1	-9	-5
COc1ccc(S(=O)(=O)N2c3ccccc3NC(=O)CC2C)cc1 (configuration not stated)	-4	i	1	3	17	-9	-21	0
Cc1nn(C(C)(C)C)c(NC(=O)c2ccc(Cl)cc2Cl)c1Br	-2	i	5	2	-3	1	-4	1
O=C1CSc2nc3ccccc3n21	nt	i	-2	2	-53	-3	-15	-9
NC1(N)OC(CN2C(=O)c3ccccc3C2=O)CS1 (configuration not stated)	-3	i	2	-1	nt	6	-13	4
CCn1c(SCC(=O)Nc2ncc(C(F)(F)F)cc2Cl)nnc1-c1cccc(C)c1	-24	i	2	1	19	-5	-14	-7
COc1ccnc(Oc2ccc3ccccc3c2)c1C#N	9	i	5	1	nt	-5	nt	-11
CC1(C)Cc2c(C#N)c(N)sc(=S)c2CO1	nt	i	-34	13	-1	?	-6	?
Cc1ccc(C)c(-n2nnnc2SCC(=O)c2ccc3c(c2)NC(=O)CO3)c1	-25	i	-2	-3	6	-5	-19	-13
COCCNC(=O)c1ccccc1NC(=O)c1cccc([N+](=O)[O-])c1C	nt	i	0	4	11	0	nt	0

Retrieved by structure from the list above (3):
SMILES	CSC inhib	Rce1 inhib	MT1-MMP act inh	MT1-MMP act inh RFP	Env fusion inh	PABP polyA inh	UUG fidelity	eIF4H FP inh	others
Cc1nn(C(C)(C)C)c(NC(=O)c2ccc(Cl)cc2Cl)c1Br	-2	i	5	2	-3	1	-4	1
Cc1ccc(C)c(-n2nnnc2SCC(=O)c2ccc3c(c2)NC(=O)CO3)c1	-25	i	-2	-3	6	-5	-19	-13
CC1(C)Cc2c(C#N)c(N)sc(=S)c2CO1	nt	i	-34	13	-1	?	-6	?

(next part)
SMILES	CSC inhib	Rce1 inhib	MT1-MMP act inh	MT1-MMP act inh RFP	Env fusion inh	PABP polyA inh	UUG fidelity	eIF4H FP inh	others
COc1ccc(/C=C2\SC(N3CCCCC3)=NC2=O)cc1OC	-10	i	7	11	-10	5	-13	-11
O=C(Nn1cnnc1)c1ccc(Cl)cc1	1	i	0	2	9	8	2	93	eIF4H FP inh retest=2;PABP polyA inh retest=15
Cc1ccc(Cl)c(OCC(=O)Nc2sc(C)c(C)c2C#N)c1	-4	i	3	6	5	18	-6	-1
O=C(NC1CCN(Cc2ccccc2)CC1)c1cc(-c2ccccn2)nc2ccccc12	3	i	2	2	-92	-3	-12	-2
CC(C)c1ccc(NC(=O)CNS(=O)(=O)c2ccc(F)cc2)cc1	-6	i	-5	-5	18	-15	-1	7
CCCC(C)C(=O)Nc1nc(C)c(-c2csc(Nc3ccc(Cl)cc3)n2)s1 (configuration not stated)	43	i	15	-13	18	-3	-4	8
O=C(Nc1ccccn1)c1ccc(NC(=O)c2ccco2)cc1	-3	i	2	-1	nt	-11	-16	-2
Cc1nc2ccccc2c(=O)n1/N=C/c1ccc(O)c(O)c1O	-3	i	0	0	9	87*	-20	90*
CN(Cc1cnccn1)C(=O)C1CCC(=O)N(CCc2ccccc2)C1 (configuration not stated)	10	i	0	3	-5	2	-21	-16
COc1ccc(N(CC(=O)NN=C2CCCC2)S(=O)(=O)c2ccccc2)cc1Cl	-16	i	1	3	-15	9	-15	-6
COc1ccccc1Oc1cn[nH]c1-c1ccc(O)cc1O	9	i	5	-4	11	2	nt	10
O=C(Cn1nc(C(=O)O)c2ccccc2c1=O)Nc1ccc2c(c1)OCO2	-10	i	0	2	-1	1	-10	-13
O=C(/C=C/c1ccc(Br)cc1)c1ccc(NC2=NCCCS2)cc1	nt	i	-11	-16	-36	13	nt	-4
Cc1c(Cc2ccccc2)c(=O)oc2c(O)c(O)ccc12	nt	i	-16	-11	-58	25	nt	14
